# Mtb MbtI inh: inhibitors of Mycobacterium tuberculosis siderophore enzyme MbtI; P9WFX0; purified MbtI enzyme, fluorescence intensity read-out; inhibition, %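 (about 17 µg/mL by stock and volumes)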; 0.89% of 100,000 active;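 active means above 50% in both replicates, above 80% if mildly self-fluorescent; inactive means the rest, strongly fluorescent compounds included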;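 further: 0% = mean of negative and 100% = mean of positive controls; one replicate is shown; some compounds called inactive have numbers as strong as hits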
# PV pol inh: inhibitors of poliovirus RNA polymerase binding and polymerization. poliovirus polymerase elongation, fluorescence polarization; stronger effect = lower value. % elongation, % (compound at 16.7 µg/mL). 0.66% of 150,000 active. AID 588519; in the data active means % elongation below about 90%; further: some results filed as inactive read as strong as hits
# Target sequence (P03300 1749-2209 limits assumed): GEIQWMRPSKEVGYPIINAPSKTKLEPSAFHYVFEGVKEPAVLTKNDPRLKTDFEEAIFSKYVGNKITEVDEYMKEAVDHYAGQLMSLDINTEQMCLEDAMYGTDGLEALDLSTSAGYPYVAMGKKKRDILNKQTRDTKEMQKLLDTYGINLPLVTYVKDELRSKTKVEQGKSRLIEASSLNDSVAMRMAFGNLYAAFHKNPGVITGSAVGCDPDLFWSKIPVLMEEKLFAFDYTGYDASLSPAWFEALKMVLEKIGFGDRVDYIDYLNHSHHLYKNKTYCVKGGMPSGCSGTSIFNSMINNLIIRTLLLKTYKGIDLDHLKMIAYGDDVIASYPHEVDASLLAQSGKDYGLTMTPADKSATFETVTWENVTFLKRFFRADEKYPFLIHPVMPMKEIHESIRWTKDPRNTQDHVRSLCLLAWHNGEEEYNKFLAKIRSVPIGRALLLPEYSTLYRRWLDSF
# Mtb MenB inh: blocks the Mycobacterium tuberculosis MenB enzyme. P9WNP5. MenB enzyme assay, absorbance read-out; some hits fall short of the stated cut. inhibition, %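 (about 12 µg/mL by stock and volumes)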. 0.43% of 100,000 active. AID 540299;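 active means mean of two replicates above 30%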;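 further: 0% = no compound and 100% = wells with inactive enzyme; the first replicate is given; strong numbers were not always called active; inactives centre near -10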
# Target sequence (P9WNP5 whole entry, looked up): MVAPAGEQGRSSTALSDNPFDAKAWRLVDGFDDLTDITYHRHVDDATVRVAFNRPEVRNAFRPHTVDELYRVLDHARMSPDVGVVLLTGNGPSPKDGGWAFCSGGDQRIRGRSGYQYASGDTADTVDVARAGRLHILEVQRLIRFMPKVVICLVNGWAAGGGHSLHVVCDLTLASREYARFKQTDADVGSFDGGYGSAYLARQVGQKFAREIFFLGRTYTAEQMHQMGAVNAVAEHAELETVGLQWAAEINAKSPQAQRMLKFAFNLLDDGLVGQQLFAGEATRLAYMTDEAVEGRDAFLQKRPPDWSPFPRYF
# PV pol inh intensity: further read-out of PV pol inh, marked with its call; % elongation; measured here: total intensity read-out; formula for this scale not given here;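 total fluorescence in place of polarization; lower means less elongation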
# Active calls of the source: *; . = no result given.
# Values run as follows: Mtb MbtI inh	Mtb MenB inh	PV pol inh	PV pol inh intensity
CNC(=S)N/N=C(\C)c1ccccc1OC
    3	-54	104	95
c1ccc(-c2cn3nc(C4CCCCC4)sc3n2)cc1
    -9	12	102	102
O=C(COc1ccccc1)Oc1cc(-c2ccccc2)c2oc(=O)sc2c1
    2	-8	102	95
Cc1ccc(CNC(=O)c2ccc(N3CC(C)Sc4ccccc43)s2)o1 (stereo not drawn)
    186	-32	101	102
Cc1nnc(C)n1N(C)C
    1	.	103	103
O=C(CSc1nnc(-c2ccc(Cl)cc2)o1)NC1CCSc2ccccc21 (stereo not drawn)
    -2	-28	107	108
NC1=NC(=O)/C(=C\c2ccccc2OCc2ccccc2F)S1
    .	-16	106	110
c1ccc(-c2nn(-c3ccccc3)[n+](-c3nnn[n-]3)n2)cc1
    6	8	97	88
Cc1ccc(S(=O)(=O)n2cc(/C=C(\C#N)C(N)=O)c3ccccc32)cc1
    -16	-20	103	106
O=C(O)/C=C/c1cccnc1
    19	-23	101	97
CC(Sc1nnc2ccccn12)C(N)=O (stereo not drawn)
    -14	-18	105	108
CCCCC(=O)Nc1ccc(NCc2ccc(C)s2)cc1
    8	-5	105	102
Cc1ccc(CNC(=O)c2ccccc2N)cc1
    100	.	100	105
CN1CCC(=NNC(=O)c2ccc(CN(c3ccccc3)S(C)(=O)=O)cc2)CC1
    6	15	101	104
CCc1cc(C(=O)O)c(NC(=O)c2ccc(Br)cc2)s1
    46	.	101	104
CC(C)(C)OC(=O)N1CCC[C@H]1C(=O)Nc1ccc(C#N)cc1
    -6	-24	107	105
CCC(O)(CC)C12CC3CC(CC(C3)C1)C2
    0	-10	100	98
CCOC(=O)N1CCC(NC(=O)c2cc3c(s2)CS(=O)(=O)C3)CC1
    8	8	99	103
O=C(NC(NC1CCCCC1)(C(F)(F)F)C(F)(F)F)c1ccccc1
    -10	1	105	106
O=C(NC1CCCCC1)NC1CCN(Cc2nnnn2Cc2ccco2)CC1
    -2	30	100	103
CCOC(=O)C1CCN(Cn2c(=S)oc3ccc(S(=O)(=O)CC)cc32)CC1
    16	5	105	98
CN1/C(=C(\C#N)C(=O)CSc2nnc(-c3ccc(Cl)cc3)o2)Sc2ccccc21
    11	-30	108	105
CCN(CC)/C(C)=N/C(=S)Nc1ccccc1
    26	-12	95	100
O=C1NC(=O)C(=Cc2ccc(N3CCCC3)o2)C(=O)N1
    17	-142	126	131
CN(CC(=O)Nc1ccc(F)cc1)C(=O)Cn1nnc(-c2ccccc2)n1
    -4	-5	102	108
NC(=S)c1ccc(O)cc1
    58	-3	103	101
Cc1ccc(S(=O)(=O)CC(=O)Nc2cc(Cl)ccc2N2CCOCC2)cc1
    -20	-11	99	105
CN(C(=O)/C=C/c1ccco1)c1c(N)n(Cc2ccccc2)c(=O)[nH]c1=O
    18	-4	102	98
CCc1ccc(NC(=O)COc2ncnc3ccccc23)cc1
    2	.	104	99
COc1ccc(C(CNC(=S)NCc2ccco2)N2CCCCC2)cc1 (stereo not drawn)
    4	4	99	104

# A different layout for some results above.
CCN(CC)/C(C)=N/C(=S)Nc1ccccc1
- Mtb MbtI inh: 26
- Mtb MenB inh: -12
- PV pol inh: 95
- PV pol inh intensity: 100
O=C1NC(=O)C(=Cc2ccc(N3CCCC3)o2)C(=O)N1
- Mtb MbtI inh: 17
- Mtb MenB inh: -142
- PV pol inh: 126
- PV pol inh intensity: 131
CN(CC(=O)Nc1ccc(F)cc1)C(=O)Cn1nnc(-c2ccccc2)n1
- Mtb MbtI inh: -4
- Mtb MenB inh: -5
- PV pol inh: 102
- PV pol inh intensity: 108
NC(=S)c1ccc(O)cc1
- Mtb MbtI inh: 58
- Mtb MenB inh: -3
- PV pol inh: 103
- PV pol inh intensity: 101

# (more compounds)
# Values run as follows: Mtb MbtI inh	Mtb MenB inh	PV pol inh	PV pol inh intensity
CCNC(=O)c1sc(-c2ccccc2)nc1C
    .	4	106	104
Cn1ncc2c(=O)n(CC(=O)c3ccccc3)cnc21
    -9	-10	104	108
CNC(=O)c1cc(S(=O)(=O)N2CCCc3ccccc32)ccc1C
    -7	-18	108	101
O=C(/C=C/NCc1ccccc1)C(F)(F)F
    11	-15	99	107
C/C(N)=C(/C#N)C(=O)CSc1nc2ccccc2c(=O)[nH]1
    2	-58	101	98
O=C(Cn1ncc2c(=O)oc3ccccc3c21)NCCc1ccsc1
    7	15	99	95
CCCCn1c(SCC(=O)c2ccc(OC)cc2OC)nc2cc(S(N)(=O)=O)ccc21
    -5	-33	100	108
CCC1(C)Cc2nc3nc(SCC(=O)c4ccccc4)n(Cc4ccccc4)c(=O)c3cc2CO1 (stereo not drawn)
    -211	-15	104	107
Cc1cc(-c2onc(C)c2C(N)=O)no1
    14	-21	105	92
CN1CCN(C(=S)SCC(=O)Nc2nc(=O)c3ccccc3s2)CC1
    -2	-3	99	96
COc1ccc(NC(=O)c2ccc(C)o2)cc1Cl
    10	-22	103	100
Cc1ccc(CN(C)S(=O)(=O)c2ccc(C(=O)NCC(F)(F)F)cc2)o1
    -6	-1	105	102
CCCC(=O)CC(c1ccccc1)C1C(=O)c2ccccc2C1=O (stereo not drawn)
    .	-19	101	100
CSC1=NN(C)c2cnn(C)c(=O)c2S1
    7	-26	106	96
Nc1nc(SCC(=O)Nc2ccc3c(c2)OCO3)n[nH]1
    -46	-82	97	104
Cc1c(C)n(C(=O)CSc2ccc(Cl)cc2)c2ccccc12
    -3	-16	101	103
Cc1cc(SC/C(O)=C(\C#N)c2nc3ccccc3[nH]2)nc2ccccc12
    1	-20	109	110
COC(=O)c1c[nH]n2c(=O)c(Cc3ccc(C)cc3)c(C)nc12
    2	-5	101	102
CC(=O)Nc1ccc(NC2CCCCC2NS(=O)(=O)c2ccc(Cl)cc2)cc1 (stereo not drawn)
    -3	-5	100	103
CCOc1ncccc1C(=O)NC(C)CCc1ccccc1 (stereo not drawn)
    5	-7	101	106
Cc1ccc2c(COC(=O)c3ccc(-n4cnnn4)cc3)cc(=O)oc2c1
    -10	-5	97	106
COc1ccc(-n2nc3cc(C)c(NC(=O)c4ccc5c(c4)OCO5)cc3n2)cc1
    12	20	103	103
CC(=O)NC1C(=O)NC(=S)N(c2ccccc2)C1=O (stereo not drawn)
    11	2	103	104
COc1ccccc1/C=C/C(=O)Nc1ccccc1C(=O)NCc1ccco1
    32	-5	104	100
CC(=O)Nc1ccc(NC(C)=O)c(C(F)(F)F)c1
    -5	-26	98	103
N#Cc1cccc(NC(=O)CSc2ccccc2)c1
    -8	-15	101	104
Cc1cc(N)c(N)cc1C
    -7	-17	100	94
CC12CCC(c3nnc(SCC(=O)Nc4cccc(C(F)(F)F)c4)nc31)C2(C)C (stereo not drawn)
    18	-4	99	101
CN1/C(=C\C(=O)COC(=O)CCN2C(=O)C3CC=CCC3C2=O)C(C)(C)c2ccccc21 (stereo not drawn)
    4	-5	121	133
COCCOc1ccc(C(F)(F)F)cc1NCC(=O)Nc1cccnc1Cl
    -10	-18	106	104

# Random excerpt: 2 compounds from above, in no set order.
# Values run as follows: Mtb MbtI inh	Mtb MenB inh	PV pol inh	PV pol inh intensity
Cc1ccc2c(COC(=O)c3ccc(-n4cnnn4)cc3)cc(=O)oc2c1
    -10	-5	97	106
O=C1NC(=O)C(=Cc2ccc(N3CCCC3)o2)C(=O)N1
    17	-142	126	131

# More structures.
# Values run as follows: Mtb MbtI inh	Mtb MenB inh	PV pol inh	PV pol inh intensity
CCOc1ccccc1N=C1SC(CC(=O)Nc2ccccc2)C(=O)N1Cc1ccco1 (stereo not drawn)
    -1	-22	100	100
C[N+](C)(C)CC(O)COc1ccccc1 (stereo not drawn)
    -10	-20	102	104
COC(=O)c1cc(CSc2nc3ccccc3c(=O)n2C)oc1C
    18	27	100	104
CN1/C(=C\C(=O)Nc2cccnc2)c2ccccc2CC1(C)C
    4	-14	102	100
CCOC(=O)c1noc(C)c1-c1csc(Nc2cc(C(F)(F)F)cc(C(F)(F)F)c2)n1
    15	-6	102	102
CCN(C(=O)NCc1noc2ccccc12)c1ccccc1
    9	-29	103	99
O=C1/C(=N\O)CC(OC(=O)c2ccccc2)C/C1=N/O (stereo not drawn)
    6	-15	102	98
Cc1nc2ccc3c(c2s1)CCCC3
    45	-48	100	102
O=C(Nc1nccs1)C1CC2CCC1C2 (stereo not drawn)
    -16	.	102	105
CCOC(=O)NC(=S)Nc1ccc(F)cc1
    0	-25	100	95
CCOC(=O)CSc1nnc(CNC(=O)c2cccs2)n1-c1ccccc1
    1	-14	102	103
CCOC(=O)c1cnc(N2CCCCC2)[nH]c1=O
    16	-2	99	100
C[N+](C)(C)Cc1ccccc1
    -25	.	105	108
Cc1cc(Oc2nc3cc(Cl)ccc3s2)c2cc(Cl)ccc2n1
    1	-6	110	92
C=CCNC(=O)C1CC(=O)N(c2ccc(OCC(=O)Nc3ccc(F)cc3)cc2)C1 (stereo not drawn)
    .	-14	98	89
O/N=C/c1ccnc(SCc2ccc(Cl)cc2)n1
    -7	-10	102	108
COc1cc2c(cc1OC)C(c1ccccc1F)OC(=O)C2 (stereo not drawn)
    -2	.	101	105
O=C(Cc1cccc2ccccc12)NCc1ccc(F)cc1
    12	0	99	96
COc1ccc(S(=O)(=O)Nc2ccc(F)cc2C)cc1OC
    -2	-2	102	104
CN(C)c1ccc(C(=O)OCC(=O)c2cccc(Cl)c2)cc1
    -7	.	103	107
CC(=C(C#N)C#N)c1ccccc1
    -4	.	103	99
Cc1nc2ccccc2nc1C(=O)NCCCN1CCN(c2ccccc2)CC1
    6	18	99	103
Cc1ccc(NC(=O)CNC2CCS(=O)(=O)C2)cc1C (stereo not drawn)
    5	15	101	99
CCn1c(CNC(=O)c2ccncc2)cc2ccccc21
    -9	-33	104	100
CN(Cc1ccco1)C(=O)c1ccc2c(c1)CC(c1ccccc1)OC2=O (stereo not drawn)
    11	-25	105	108
CC(O)(CCO)C12CC3CC(CC(C3)C1)C2 (stereo not drawn)
    -5	.	99	98
O=C(COc1ccccc1)Nc1nc2ccccc2[nH]1
    3	-12	101	97
CCCn1c(N)nc2ccccc21
    -7	.	100	101
FC(F)(F)c1ccccc1NC(=S)N1CCC2(CC1)OCCO2
    -13	-6	102	103
O=C(O)[C@@H]1CCCN1C(=O)c1ccccc1F
    5	-7	106	104

# (further entries)
# Values run as follows: Mtb MbtI inh	Mtb MenB inh	PV pol inh	PV pol inh intensity
COC(=O)c1ccccc1S(=O)(=O)N1CCN(S(=O)(=O)c2cccs2)CC1
    -1	-8	102	101
COc1ccc(S(=O)(=O)Nc2cccc(C(F)(F)F)c2)cc1OC
    -3	-4	106	106
CC(C)N(C(=O)c1sc2ccccc2c1Cl)C(C)C
    -4	.	102	97
O=C(O)CSCc1ccsc1
    -9	0	97	103
c1ccc(C(OCCN2CCNCC2)c2ccccc2)cc1
    .	-9	106	111
COc1ccc(C(=O)Cn2ccnc2C(=O)NCc2ccc(C)cc2)cc1
    -7	-22	101	104
CCOC(=O)N/N=C1\CCCc2ccccc21
    7	4	101	105
CN(CC(=O)N1CCCC1)S(=O)(=O)c1ccc2[nH]c3c(c2c1)CCCC3
    -8	-4	103	107
CCC1CCCCN1C(=O)CSc1nc2c(c(=O)n1Cc1ccccc1)SC(C)C2 (stereo not drawn)
    -8	-13	100	104
CCC(C)NC(=O)c1c[nH]c2ccc(S(=O)(=O)N(C)c3cc(C)ccc3C)cc2c1=O (stereo not drawn)
    -58	-5	98	104
CCN1C(=O)C(O)(CC(=O)c2cc(C)ccc2C)c2ccccc21 (stereo not drawn)
    7	-21	102	100
CC(C)CN(CC(C)C)Cn1nc(-c2ccc3c(c2)OCO3)oc1=S
    -29	-3	103	101
Cc1ccc(S(=O)(=O)N2CCC(c3nc4cc(C(=O)NCc5ccco5)ccc4n3C3CCCCC3)CC2)cc1
    -19	-24	102	101
COc1ccc(C(=O)NCC(=O)N2CCN(c3ccc(F)cc3)CC2)cc1
    -10	.	105	109
CCOC(=O)c1c(C)n(CCNC(C)=O)c2cc(Br)c(OC)cc12
    8	15	99	101
COc1ccc(C2CC(=O)N(C)c3ccccc3S2)cc1 (stereo not drawn)
    5	-7	103	105
Oc1ccc(Nc2ncnc3ccccc23)cc1
    -2	-20	102	103
Cc1cc(C)c2c(n1)nn1c(C)c(CCC(=O)NCCc3ccccc3)c(C)nc21
    22	-13	100	97
Cc1ccc(NC(=O)NC2CCN(C(=O)N3CCOCC3)CC2)cc1
    -10	-57	105	102
C=CCn1cc(/C=C2/NC(=O)N(c3ccccc3)C2=O)c2ccccc21
    -14	-23	103	103
CSc1sc(C(=O)NC(=O)Nc2ccc(Cl)cc2)c2c1-c1nocc1CC2
    -4	-4	104	106
CCOc1ccc(NC(=O)C2CCN(C(=O)c3ccccc3)CC2)cc1
    -4	-30	101	104
NC(=O)C1CCN(CC2CC=CCC2)CC1 (stereo not drawn)
    .	-6	103	103
O=C(NCCc1ccccc1)C1CCN(c2nc3ccccc3o2)CC1
    -16	-16	101	103
CCC(Sc1nc(C)cc(=O)[nH]1)C(=O)Nc1ccc(Cl)cn1 (stereo not drawn)
    2	-17	105	105
Cn1c(CSC2CN(C(c3ccccc3)c3ccccc3)C2)n[nH]c1=S
    13	-37	110	109
O=C(CSc1nc2ccccc2c(=O)n1NC(=O)c1ccccc1)NCc1ccccc1
    -9	-15	102	103
O=C(Nc1ccnn1C1CCCC1)c1ccc(OC(F)F)cc1
    -6	-17	104	101
Cc1cc(C(=O)CCC(=O)N(C)Cc2c(C)nn(-c3ccccc3)c2C)c(C)s1
    7	-36	113	141

# Screening results from PubChem BioAssay.
